CtBP-E1A blk: qHTS Assay for Inhibitors of the CtBP/E1A Interaction; activity change, % (concentration not given with the values); CtBP / adenovirus E1A interaction (AlphaScreen); AID 651724, 2012; AlphaScreen GST-E1A/His-CtBP binding, 1536-well; stronger effect = lower value; control for the full effect not named in the record; actives 0.49% (n = 340,000); in the data active means activity change below about -65%; inconclusive means about -30% to -65%; inactive means above about -30%; further: on the % scale 0 is the no-effect control and ±100 the full control effect
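In 5 uL wells, 23 nL compound meets equimolar GST-E1A and His-CtBP (5X stock 125 nM each) for 2 h, 37 °C. Beads (5X, 50 ug/mL) then 1 h, 37 °C, dark.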
TRPV1 PAM: HTS Assay for Compounds that Act as Potentiators of the Vanilloid Receptor 1 | Transient receptor potential cation channel subfamily V member 1 (Homo sapiens), Q8NER1 | TRPV1-expressing cells, Fluo-8 calcium influx, capsaicin EC20 potentiation; host cell line not named in the record; control for the full effect not named in the record | potentiation, % at 8.33 µM | actives 0.02% (n = 320,000); active means potentiation above 80%; inconclusive means 30% to 80%; inactive means below 30%; further: 0% is about no effect
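TRPV1-expressing cells were cultured overnight at 35.5C and loaded with Fluo-8 calcium dye for 40 to 90 min at room temperature. After a 10 s baseline, compound was added and calcium influx was read kinetically for 3 min (ex 480/em 520 nm).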
TRPML1 blocker: qHTS for Inhibitors of the Human Mucolipin Transient Receptor Potential 1 (TRPML1). actives 0.02% (n = 390,000). Mucolipin-1 (Homo sapiens), Q9GZU1. TRPML1-inducible cells, Ca2+ dye fluorescence, FDSS; stronger effect = lower value; inhibition of EC80 agonist-evoked calcium signal. activity change, negative = inhibition, % (test concentration not listed); in the data active means activity change below about -50%; inconclusive means about -30% to -50%; inactive means above about -30%;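 further: stimulus is agonist 54-4 at its EC80 concentration; on the % scale 0 is the no-effect control and ±100 the full control effect; compound concentration not given in the record; the text of the record puts the active cut at -80%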
Target sequence (Q9GZU1 whole entry, looked up): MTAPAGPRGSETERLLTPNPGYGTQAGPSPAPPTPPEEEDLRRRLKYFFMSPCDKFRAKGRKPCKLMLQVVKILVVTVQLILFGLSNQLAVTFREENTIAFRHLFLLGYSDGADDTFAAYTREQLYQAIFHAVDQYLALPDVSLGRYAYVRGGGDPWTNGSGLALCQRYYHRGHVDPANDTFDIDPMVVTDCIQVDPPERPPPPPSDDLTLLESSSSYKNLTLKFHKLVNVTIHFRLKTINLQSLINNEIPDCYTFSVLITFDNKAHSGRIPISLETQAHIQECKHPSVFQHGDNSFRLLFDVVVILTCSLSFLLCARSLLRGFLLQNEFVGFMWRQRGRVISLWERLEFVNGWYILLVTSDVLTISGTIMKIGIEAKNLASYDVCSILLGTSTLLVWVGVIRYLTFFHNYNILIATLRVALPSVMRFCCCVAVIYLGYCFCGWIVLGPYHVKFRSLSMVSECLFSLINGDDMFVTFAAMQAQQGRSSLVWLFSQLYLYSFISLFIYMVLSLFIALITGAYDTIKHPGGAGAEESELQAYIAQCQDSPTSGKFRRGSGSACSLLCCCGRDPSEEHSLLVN
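Tet-induced TRPML1-DL cells loaded with Ca8 no-wash calcium dye were read kinetically on FDSS. Compound addition was followed by EC80 agonist 54-4 (4 uM final); inhibition was read over 110 s.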
D2 potentiator: Beta-Arrestin HTS for Positive Allosteric Modulators of the Human D2 Dopamine Receptor: Potentiators; D(2) dopamine receptor (Homo sapiens), P14416; DiscoveRx D2 beta-arrestin cells, luminescence, 90 min; 100% = 57 uM dopamine signal; potentiation, % (no concentration beside the values); actives 0.23% (n = 360,000); active = potentiation of 50% or more; inconclusive = 30% to 50%; inactive = 30% or less;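 further: compound concentration not given in the record; tested on top of an EC20 dose of dopamine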
Target sequence (P14416 whole entry, looked up): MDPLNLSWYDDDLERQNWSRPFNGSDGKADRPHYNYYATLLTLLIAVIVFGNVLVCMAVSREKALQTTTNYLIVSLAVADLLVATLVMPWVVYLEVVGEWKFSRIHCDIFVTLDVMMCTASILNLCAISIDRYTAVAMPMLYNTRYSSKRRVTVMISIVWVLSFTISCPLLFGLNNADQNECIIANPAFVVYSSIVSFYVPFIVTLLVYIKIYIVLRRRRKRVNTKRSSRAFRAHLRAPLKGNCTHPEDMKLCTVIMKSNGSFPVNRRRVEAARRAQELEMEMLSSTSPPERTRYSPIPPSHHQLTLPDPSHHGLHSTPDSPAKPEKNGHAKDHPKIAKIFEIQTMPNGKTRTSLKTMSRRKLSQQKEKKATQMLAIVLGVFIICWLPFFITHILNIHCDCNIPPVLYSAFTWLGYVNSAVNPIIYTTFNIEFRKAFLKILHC
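D2 cells co-treated with compound plus 50 nM dopamine (EC20) for 90 min at 37 deg C to detect potentiation. Beta-arrestin recruitment was read as enzyme-fragment luminescence after 1 h at ambient temperature. Full response was set by 57 uM dopamine.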
Six1-Eya2 blk: qHTS Assay for Inhibitors of the Six1/Eya2 Interaction. AlphaScreen GST-Six1/His-Eya2 binding, biochemical; stronger effect = lower value; control for the full effect not named in the record. Homeobox protein SIX1 (Homo sapiens) + Protein phosphatase EYA2 (Homo sapiens), …. activity change, % (concentration not given with the values). actives 0.56% (n = 360,000); in the data active = activity change below about -65%; inconclusive = about -30% to -65%; inactive = above about -30%; further: on the % scale 0 is the no-effect control and ±100 the full control effect
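Homogeneous AlphaScreen proximity assay pairing GST-Six1 with His-tagged Eya2 (added as 5X mix: 250 nM and 500 nM) in 50 mM Tris pH 8.0, 300 mM NaCl, 1 mM TCEP. Glutathione donor and nickel acceptor beads; 1 h, 37 °C, dark.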
TRPML1 agonist: qHTS for Agonists of the Human Mucolipin Transient Receptor Potential 1 (TRPML1). AID 624414, 2012. Mucolipin-1 (Homo sapiens), Q9GZU1. actives 0.12% (n = 410,000). TRPML1-expressing cells, Ca2+ dye fluorescence, FDSS; host cell line not named in the record; reference of the full effect not given here. activation, % (test concentration not listed); in the data active = activation above about 50%; inconclusive = about 30% to 50%; inactive = below about 30%; further: 0% is about no effect; the text of the record puts the active cut at 80%
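Calcium fluorescence on an FDSS kinetic reader gave the read-out. Tet-induced TRPML1-DL cells were plated overnight, dye-loaded (Ca8 with quencher, 45-90 min, room temperature, dark), then read 110 s after compound addition, and again 110 s after 4uM final 54-4 (EC80).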
* = called active by the depositor; u = inconclusive; x = not tested or not shown; & = joins results of further samples.

SMILES	CtBP-E1A blk	TRPV1 PAM	TRPML1 blocker	D2 potentiator	Six1-Eya2 blk	TRPML1 agonist
O=C(O)CCCNC(=O)c1cccc(C(=O)NCCCC(=O)O)n1	6	-1	3	-14	12	1.4
O=C(CNC(=O)c1ccc2c(c1)OCCO2)N/N=C/c1ccco1	0	6	6	-4	1	-0.6
COc1ccc(Nc2nc(-c3ccc4c(c3)NC(=O)CO4)cs2)cc1	-7	4	-3	12	-13	1.6
COc1ccc(NC(=O)C2CCCN(S(=O)(=O)c3cccc4cccnc34)C2)c(OC)c1 (stereo not drawn)	3	x	-5	2	3	1.0
COc1ccc(NS(=O)(=O)c2cc(-c3nnnn3C)ccc2OC)cc1	-2	13	15	-5	-2	-1.0
COCCNC(=O)/C(C#N)=C/C(C)=C/c1ccccc1	-5	-8	-8	-7	2	0.7
NS(=O)(=O)c1ccc(NC(=O)c2cc(-c3cc(Cl)ccc3O)n[nH]2)cc1	2	-12	4	-9	-2	-0.6
CC(=O)Nc1cc(NC(C)=O)cc(C(=O)OCC(=O)c2ccc3c(c2)NC(=O)CO3)c1	0	-19	-6	3	-13	0.1
O=C(NCCOc1nc(N2CCCCC2)nc(N2CCCCC2)n1)Nc1ccccc1	-4	-4	0	-7	0	-0.4
COc1ccc(C2(CNC(=O)c3cc([N+](=O)[O-])cc([N+](=O)[O-])c3)CCCC2)cc1OC	-1	1	-5	25	-23	-1.0
CCN1CCN(C(=O)C(N)Cc2ccccc2)CC1 (stereo not drawn)	x	-4	18	-3	-1	1.1
Cc1ccc2nc(Nc3ccccc3)c(C=O)c(=O)n2c1	7	-21	-19	20	-3	0.7
O=C(c1ccccc1Cc1ccccc1)N1CCN(S(=O)(=O)c2ccccc2F)CC1	-4	-11	30	-1	-3	2.3
CN1OC[C@@H]2CN(Cc3cc(Cl)cc(Cl)c3)[C@H](c3cccc(Br)c3)C[C@@H]21	-5	x	57	x	-7	0.6
CCc1cccc(N(C(=O)c2csnn2)C(C(=O)NC2CCCC2)c2cccnc2)c1 (stereo not drawn)	12	18	-5	1	-6	-0.5
CCOc1ccccc1N(C)C(=O)c1sc2ncn(CC(=O)N3CCCCC3C)c(=O)c2c1C (stereo not drawn)	10	-2	1	0	-2	-0.5
COc1ccccc1OCc1ccc(C(=O)NCCN(C)C)o1	11	-2	-21	-11	0	0.0
O=[N+]([O-])c1ccc2c(c1)C(=Nc1ccccc1)c1ccccc1-2	u	x	-1	6	u	3.2
CCCCN1C(=O)C(=O)N(CC(=O)c2ccc3c(c2)CCCC3)C1=O	-25	-9	-6	0	-5	14
Cc1nn(-c2ccccc2)c(Cl)c1C(=O)NCc1ccccc1F	-3	0	-6	-4	1	1.7
Cc1cccc(C)c1OCC(=O)NNC(=O)CNC(=O)c1ccc(OC(F)F)cc1	-5	-4	1	-8	6	0.0
Cc1cc(C)nc(Nc2ncc(O)n2-c2ccc(Br)cc2)n1	-2	18	-14	-15	-2	-0.3
O=[N+]([O-])c1ccc(Sc2nccn2Cc2ccccc2)c([N+](=O)[O-])c1	15	-7	-18	u	-8	-0.6
COc1ccc(CCNC(=O)CCS(=O)(=O)Cc2ccccc2C)cc1OC	4	15	11	-5	6	2.7
Cc1cc(C)c[n+](C2=C([O-])c3ccccc3C(=O)/C2=N\S(=O)(=O)c2cccs2)c1	8	10	-9	5	-2	0.4

Another view of three compounds above.
Molecule | CtBP-E1A blk | TRPV1 PAM | TRPML1 blocker | D2 potentiator | Six1-Eya2 blk | TRPML1 agonist
COCCNC(=O)/C(C#N)=C/C(C)=C/c1ccccc1 | -5 | -8 | -8 | -7 | 2 | 0.7
NS(=O)(=O)c1ccc(NC(=O)c2cc(-c3cc(Cl)ccc3O)n[nH]2)cc1 | 2 | -12 | 4 | -9 | -2 | -0.6
CC(=O)Nc1cc(NC(C)=O)cc(C(=O)OCC(=O)c2ccc3c(c2)NC(=O)CO3)c1 | 0 | -19 | -6 | 3 | -13 | 0.1

The main list resumes, starting three compounds before the break.
SMILES	CtBP-E1A blk	TRPV1 PAM	TRPML1 blocker	D2 potentiator	Six1-Eya2 blk	TRPML1 agonist
O=[N+]([O-])c1ccc(Sc2nccn2Cc2ccccc2)c([N+](=O)[O-])c1	15	-7	-18	u	-8	-0.6
COc1ccc(CCNC(=O)CCS(=O)(=O)Cc2ccccc2C)cc1OC	4	15	11	-5	6	2.7
Cc1cc(C)c[n+](C2=C([O-])c3ccccc3C(=O)/C2=N\S(=O)(=O)c2cccs2)c1	8	10	-9	5	-2	0.4
O=C(CCN1N=C(c2ccccc2)CCC1=O)NC1CCCCC1	5	x	-13	-11	2	-0.3
O=C(CCCn1ncn2c(cc3occc32)c1=O)NCc1cccc(Cl)c1	-18	-17	25	-9	-8	1.0
CN(C)S(=O)(=O)c1cccc(C(=O)OCC(=O)c2ccc3c(c2)NC(=O)CO3)c1	-12	x	14	10	-19	0.4
Oc1[nH]c(N=C2N=c3ccccc3=N2)c2ccccc12	u	-3	-18	5	u	-0.7
CN(C)CCCNC(=O)/C(=C\c1ccc(-c2ccc(Br)cc2)o1)NC(=O)c1ccccc1	1	10	-26	-10	2	0.2
COc1ccc(-c2cc(C(=O)N3CCN(c4ccccc4OC)CC3)no2)cc1	-25	11	11	-3	-11	0.8
COc1ccc(C(=O)Nc2nc(C)cc(C)n2)cc1	5	-4	-7	-1	10	1.0
O=C(CCn1c(=O)c2cccn2c2ccc(F)cc21)NCc1cccc(F)c1	-7	-11	2	-11	-1	1.3
Cn1c2c(c(=O)n(C)c1=O)C(C(F)(F)F)(C(F)(F)F)N=C(c1ccccc1Cl)N2	-14	-1	27	1	-6	1.3
COC(=O)c1c(NC(=O)c2ccc(C(=O)c3ccccc3)cc2)sc2c1CC(C)(C)NC2(C)C	-3	x	-3	-5	1	-0.4
O=C(Nc1ccc(S(=O)(=O)N2CCCc3ccccc32)cc1)C1CCCO1 (stereo not drawn)	1	8	-20	-9	-2	0.0
COc1ccc(-c2cc(C(=O)O)nc3ccc4ccccc4c23)cc1OC	-14	2	2	-9	-26	0.7
CC1C(=O)Nc2ccc(S(=O)(=O)Nc3ccccc3Br)cc2NC1=O (stereo not drawn)	5	-30	-17&-5	-3	-4	0.2&0.4
CCN1CCN(C(=O)CS(=O)Cc2nc(-c3cccc(C)c3)oc2C)CC1 (stereo not drawn)	6	-2	3	-7	5	-0.9
COc1ccccc1C(=O)Nc1c(C)n(C)n(-c2ccccc2)c1=O	6	11	-4	-8	1	-0.6
CCCCn1c(N)c(N(CCOC)C(=O)c2cc3ccccc3cc2OC)c(=O)[nH]c1=O	-2	u	3	-4	2	0.5
Cn1ccc(C(=O)N2CCCc3ccccc32)n1	-11	8	-8	4	9	-0.4
CCCCNC(=O)c1c[nH]c2ccc(S(=O)(=O)N3CCOCC3)cc2c1=O	0	19	31	9	-17	-0.4
O=C(Nc1ccc(F)cc1)c1ccc(CSc2ccccc2)o1	5	-19	12	2	4	1.8
O=C(c1cccc(F)c1)N1C2C=CC(C2)C1(C(F)(F)F)C(F)(F)F (stereo not drawn)	7	x	0	6	3	4.9
COC(=O)C1=C(C)N(c2cc(C)cc(C)c2)/C(=C/c2ccc(O)cc2)C1=O	x	-9	28	0	3	1.1
CC(C)(C)c1ccc(S(=O)(=O)N2C=CC(C(F)(F)F)=NCC2)cc1	0	-17	13	-16	1	1.6
COCC1CCCCN1Cc1cn[nH]c1-c1ccc(OC)cc1OC (stereo not drawn)	4	28	1	-1	0	-0.6
O=C(c1ccc(OC2CCN(C(=O)c3cccnc3)CC2)cc1)N1CCCCCC1	7	-1	51	-2	1	-0.1
Nc1ccc(CCn2ccnc2)cc1	-26	23	-12	0	-18	0.9

The results go on:
SMILES	CtBP-E1A blk	TRPV1 PAM	TRPML1 blocker	D2 potentiator	Six1-Eya2 blk	TRPML1 agonist
C=CCC[C@@H](Cc1ccc(F)cc1)C(=O)OCCNC(=O)[C@@H](CC=C)CC(=O)N[C@@H](CO)Cc1ccccc1	6	x	-13	x	0	-0.7
CCOc1ccc(NS(=O)(=O)CC23CCC(CC2=O)C3(C)C)cc1 (stereo not drawn)	2	-5	-15	1	0	-0.2
Oc1ccccc1/C=N/Nc1ccnc(SCc2ccccc2)n1	6	6	1	-18	-9	0.1
CC1(C)Cc2ccccc2-c2c1c(=O)n(Cc1ccccc1)c1nnnn21	0	-2	-5	-14	2	0.2
O=C(Cc1ccc(Br)cc1)Nc1nc2ccccc2[nH]1	0	5	5	-6	11	-0.1
CCOC(=O)/C(=C\Nc1ccccc1C(F)(F)F)Sc1ncc(C(F)(F)F)cc1Cl	-8	-14	19	18	7	-0.1
O=C1OCCN1C(=O)[C@H]1[C@H](c2ccc([N+](=O)[O-])cc2)C(c2cccc(Cl)c2)=NN1c1ccc(Br)cc1	-9	x	-9	x	-11	0.3
CC(=O)c1c(C)[nH]c(C(=O)OCC(=O)Nc2ccc3c(c2)OCCO3)c1C	1	x	10	-9	-5	5.5
Cc1ccc(-n2nc3c(=O)n(CC(=O)NC4CCCCC4)nc(C)c3c2C)cc1	x	10	2	3	0	-0.1
Cc1cc(C)cc(NC2=CC(=O)CC(c3ccco3)C2)c1 (stereo not drawn)	0	-23	1	-5	-7	-0.7

Complete entries, quoted from the list. Screens in order: CtBP-E1A blk | TRPV1 PAM | TRPML1 blocker | D2 potentiator | Six1-Eya2 blk | TRPML1 agonist
`CCOC(=O)/C(=C\Nc1ccccc1C(F)(F)F)Sc1ncc(C(F)(F)F)cc1Cl` reads -8 | -14 | 19 | 18 | 7 | -0.1
`O=C1OCCN1C(=O)[C@H]1[C@H](c2ccc([N+](=O)[O-])cc2)C(c2cccc(Cl)c2)=NN1c1ccc(Br)cc1` reads -9 | x | -9 | x | -11 | 0.3
`Cc1cc(C)cc(NC2=CC(=O)CC(c3ccco3)C2)c1` (stereo not drawn) reads 0 | -23 | 1 | -5 | -7 | -0.7
`CCOc1ccc(NS(=O)(=O)CC23CCC(CC2=O)C3(C)C)cc1` (stereo not drawn) reads 2 | -5 | -15 | 1 | 0 | -0.2

From PubChem BioAssay

Outcome played no part in choosing rows (roughly 0.95% active in at least one column).
